Screening data (PubChem)
Vaccinia stage: blocks a specific stage of Vaccinia orthopoxvirus infection, primary screen, cell-based, single point; Vaccinia-infected cells, mCherry/Venus stage reporter fluorescence; hits give low values; some inactives read as strong as hits; activity change (mCherry), % (test concentration not listed); 0.01% of 89,000 active; AID 1053133, 2014;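 active = mCherry past -33% and 40 or more points under the early reporter, replicates agreeing; inconclusive = past -33% without that gap or agreement; tested in A549 cells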;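 also: scaled between vehicle wells and reference inhibitor wells; 23 nL library stock went into each well; one replicate is shown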
Vaccinia stage Venus: also measured in Vaccinia stage; calls as there; activity change (Venus), %; measured here: Venus reporter, other viral stage;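 negative = less Venus signal; first of two replicates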
Numbers without * were called inactive; ? = inconclusive; · = no result given; & = joins results of further samples. Some of the compounds tested; count on the stated rates, not on these rows.

SMILES | Vaccinia stage | Vaccinia stage Venus
COc1ccc(S(=O)(=O)N(C)C[C@H]2Oc3cc(-c4ccccc4OC)ccc3S(=O)(=O)N([C@H](C)CO)C[C@@H]2C)cc1 | -20 | -14
C[C@H](CO)N1C[C@H](C)[C@H](CN(C)C(=O)Nc2ccccc2)Oc2ccc(NC(=O)CCCCCC(=O)Nc3ccccc3N)cc2CC1=O | 7 | -2
C[C@H]1CN([C@@H](C)CO)C(=O)c2cc(C#Cc3cccc(F)c3)cnc2O[C@H]1CN(C)C(=O)C1CCC1 | 2 | 2
C[C@H](CO)N1C[C@H](C)[C@@H](CN(C)Cc2ccc(Oc3ccccc3)cc2)Oc2ccc(N(C)C)cc2C1=O | -7 | -7
CCCC#Cc1ccc([C@H]2[C@H]3CN(S(=O)(=O)Cc4ccccc4)CC(=O)N3[C@H]2CO)cc1 | -18 | -15
Cc1noc(C)c1NC(=O)Nc1ccc2c(c1)C(=O)N([C@H](C)CO)C[C@H](C)[C@@H](CN(C)S(C)(=O)=O)O2 | 2 | -6
COc1ccc2c3c(n(C)c2c1)[C@H](CO)N(C(C)=O)CC31CCN(Cc2ccc(Cl)cc2)CC1 | ? | ·
C[C@H]1CN([C@@H](C)CO)S(=O)(=O)c2ccc(C#CC3(O)CCCC3)cc2O[C@H]1CN(C)C(=O)Nc1cccc(F)c1 | ? | ·
C[C@@H]1CN([C@H](C)CO)C(=O)c2cc(NC(=O)CCN3CCOCC3)ccc2O[C@@H]1CN(C)S(=O)(=O)c1cn(C)cn1 | 5 | 3
CN(C)CC#Cc1ccc([C@@H]2[C@@H](CO)N3CCCCN(C(=O)NC4CCCC4)C[C@H]23)cc1 | -2 | -9
Cc1noc(C)c1NC(=O)N(C)C[C@@H]1Oc2ccc(NC(=O)NC(C)C)cc2CC(=O)N([C@@H](C)CO)C[C@@H]1C | 7 | 5
Cc1noc(C)c1S(=O)(=O)Nc1cccc2c1O[C@@H](CN(C)S(C)(=O)=O)[C@@H](C)CN([C@H](C)CO)C2=O | 16 | 12
C[C@H]1CN([C@@H](C)CO)C(=O)c2cc(NC(=O)Nc3ccc4c(c3)OCO4)ccc2O[C@@H]1CN(C)CC1CCCCC1 | 4 | 11
C[C@@H]1CN([C@H](C)CO)C(=O)Cc2cc(NC(=O)Cc3ccccc3)ccc2O[C@H]1CN(C)Cc1ccc(C(F)(F)F)cc1 | -23 | -19
C[C@H]1CN([C@@H](C)CO)C(=O)c2cccc(NC(=O)Nc3ccc(C(F)(F)F)cc3)c2O[C@@H]1CN(C)Cc1ccc(C(F)(F)F)cc1 | -18 | -7
CNC[C@@H]1Oc2cc(C#CC(C)C)ccc2S(=O)(=O)N([C@H](C)CO)C[C@H]1C | -9 | -6
CN(C)C(=O)c1ccc(-c2ccc([C@H]3[C@H](CO)N4C(=O)CN(C(=O)CC5CC5)C[C@@H]34)cc2)cc1 | 8 | 5
C[C@@H]1CN([C@@H](C)CO)C(=O)c2cccc(NC(=O)c3ccncc3)c2O[C@@H]1CN(C)S(=O)(=O)c1ccccc1 | 21 | 8
COc1ccc(S(=O)(=O)N(C)C[C@@H]2OCCCC[C@H](C)Oc3ccc(NC(=O)Nc4ccc(C(F)(F)F)cc4)cc3C(=O)N([C@H](C)CO)C[C@@H]2C)cc1 | -24 | 0
COc1ccc(NC(=O)N2CC(=O)N3[C@@H](CO)[C@H](c4ccc(-c5ccc(C)cc5)cc4)[C@@H]3C2)cc1 | -19 | -21
C[C@H](CO)N1C[C@H](C)[C@H](CN(C)S(=O)(=O)c2cccc(F)c2)Oc2ncc(-c3ccccc3)cc2C1=O | 1 | -11
CNC[C@H]1Oc2cc(C#C[C@@H](C)O)ccc2S(=O)(=O)N([C@@H](C)CO)C[C@@H]1C | 12 | 8
C[C@@H]1CN([C@H](C)CO)C(=O)c2cc(C#CCN(C)C)cnc2O[C@@H]1CN(C)C(=O)Cc1cccnc1 | 16 | 7
Cc1noc(C)c1S(=O)(=O)N(C)C[C@@H]1Oc2c(NC(=O)c3ccc(-c4nccs4)cc3)cccc2C(=O)N([C@H](C)CO)C[C@@H]1C | -26 | -15
Cc1ccccc1-c1ccccc1[C@H]1[C@@H](C#N)N(C(=O)c2ccc(F)cc2)[C@H]1CO | -22 | -18

3 consecutive entries already listed, for reference:
SMILES | Vaccinia stage | Vaccinia stage Venus
C[C@@H]1CN([C@H](C)CO)C(=O)c2cc(C#CCN(C)C)cnc2O[C@@H]1CN(C)C(=O)Cc1cccnc1 | 16 | 7
Cc1noc(C)c1S(=O)(=O)N(C)C[C@@H]1Oc2c(NC(=O)c3ccc(-c4nccs4)cc3)cccc2C(=O)N([C@H](C)CO)C[C@@H]1C | -26 | -15
Cc1ccccc1-c1ccccc1[C@H]1[C@@H](C#N)N(C(=O)c2ccc(F)cc2)[C@H]1CO | -22 | -18

Back to the main list, repeating the 4 entries before the break.
SMILES | Vaccinia stage | Vaccinia stage Venus
CNC[C@H]1Oc2cc(C#C[C@@H](C)O)ccc2S(=O)(=O)N([C@@H](C)CO)C[C@@H]1C | 12 | 8
C[C@@H]1CN([C@H](C)CO)C(=O)c2cc(C#CCN(C)C)cnc2O[C@@H]1CN(C)C(=O)Cc1cccnc1 | 16 | 7
Cc1noc(C)c1S(=O)(=O)N(C)C[C@@H]1Oc2c(NC(=O)c3ccc(-c4nccs4)cc3)cccc2C(=O)N([C@H](C)CO)C[C@@H]1C | -26 | -15
Cc1ccccc1-c1ccccc1[C@H]1[C@@H](C#N)N(C(=O)c2ccc(F)cc2)[C@H]1CO | -22 | -18
C[C@H](CO)N1C[C@H](C)[C@H](CN(C)S(=O)(=O)c2ccccc2)Oc2ncc(-c3cccc(C(F)(F)F)c3)cc2C1=O | ? | ·
Cc1ccccc1S(=O)(=O)N1CCCCN2[C@H](C1)[C@@H](c1ccc(-c3cccnc3)cc1)[C@@H]2CO | -20 | -14
C[C@H](CO)N1C[C@H](C)[C@H](CN(C)C(=O)Nc2cccc3ccccc23)Oc2ccc(NS(=O)(=O)c3ccc(F)cc3)cc2C1=O | 9 | 1
CCCNC(=O)N1CC2(C1)[C@@H](c1ccccc1)[C@H](CO)N2C(=O)CC1CC1 | -1 | 2
COCC(=O)N1C[C@@H](C)[C@@H](OC)CN(C)C(=O)c2ccc(NC(=O)C3CCC3)cc2OC[C@H]1C | 8 | 6
O=C(N[C@H]1C=C[C@H](CC(=O)N2CCN(c3ccccc3)CC2)O[C@@H]1CO)c1ccccc1 | 2 | -3
Cc1noc(C)c1S(=O)(=O)N(C)C[C@@H]1Oc2ccc(NC(=O)NC(C)C)cc2CC(=O)N([C@@H](C)CO)C[C@@H]1C | 12 | 5
COc1ccc(C#Cc2cnc3c(c2)C(=O)N([C@H](C)CO)C[C@H](C)[C@H](CN(C)CC2CCCC2)O3)cc1 | 6 | 7
O=C(c1cccc(F)c1)N1CCCCN2[C@H](CO)[C@H](c3ccc(-c4ccc(F)cc4)cc3)[C@H]2C1 | ? | ·
CCCNC(=O)N(C)C[C@@H]1Oc2cc(-c3ccc(C)cc3)ccc2S(=O)(=O)N([C@@H](C)CO)C[C@@H]1C | -31 | -25
COc1cccc(S(=O)(=O)Nc2ccc3c(c2)[C@@H]2C[C@H](CC(=O)NCC(F)(F)F)O[C@H](CO)[C@@H]2O3)c1 | -1 | 1
O=C(Cc1ccccn1)N1CC(=O)N2[C@H](CO)[C@H](c3ccc(-c4ccccc4)cc3)[C@@H]2C1 | 1 | 0
CO[C@H]1CN(C)C(=O)c2ccc(NC(C)=O)cc2OC[C@@H](C)N(Cc2ccncc2)C[C@@H]1C | -10 | -11
O=C(C[C@H]1C=C[C@H](NC(=O)C2CC2)[C@H](CO)O1)NCCc1cscn1 | 7 | 8
CCCC#Cc1ccc([C@H]2[C@H]3CN(C(=O)NCCC)CC(=O)N3[C@H]2CO)cc1 | 6 | 4
O=C(C[C@H]1C=C[C@H](NC(=O)c2ccncc2)[C@@H](CO)O1)NCc1ccncn1 | -1 | 3
CCCNC(=O)N1CCC2(CC1)CN(C(=O)NC1CCCC1)[C@@H](CO)c1[nH]c3cc(OC)ccc3c12 | 21 | 25
CCC(=O)N(C)C[C@H]1Oc2cc(-c3ccc(C#N)cc3)ccc2S(=O)(=O)N([C@@H](C)CO)C[C@@H]1C | 9 | 10
C[C@@H]1CCCCO[C@@H](CN(C)C(=O)Nc2cccc3ccccc23)[C@@H](C)CN([C@H](C)CO)C(=O)c2cc(NS(=O)(=O)c3cccs3)ccc2O1 | 16 | 19
N#Cc1ccc(-c2ccc([C@H]3[C@@H](CO)N4C(=O)CNC[C@H]34)cc2)cc1 | 2 | -1
Cc1ccc(-c2cnc3c(c2)C(=O)N([C@H](C)CO)C[C@@H](C)[C@H](CN(C)C(=O)CN(C)C)O3)cc1 | -4 | -5
COc1cccc(C#Cc2ccc3c(c2)O[C@H](CN(C)C(=O)c2ccccn2)[C@@H](C)CN([C@@H](C)CO)S3(=O)=O)c1 | -12 | -2
COc1ccc(NC(=O)Nc2ccc3c(c2)C(=O)N([C@@H](C)CO)C[C@@H](C)[C@H](CN(C)Cc2ccc4c(c2)OCO4)OCCCC[C@@H](C)O3)cc1 | -34 | -24
Cc1ccccc1-c1ccc(C2[C@H]3CNC[C@@H]2N3S(=O)(=O)Cc2ccccc2)cc1 (stereo not given in full) | 18 | 20
C[C@H]1CN([C@@H](C)CO)C(=O)c2cccc(NC(=O)C3CCOCC3)c2O[C@@H]1CN(C)Cc1ccncc1 | 14 | 3

Remaining list, next part:
SMILES | Vaccinia stage | Vaccinia stage Venus
O=C(C[C@H]1C=C[C@@H](NC(=O)Nc2cc(F)ccc2F)[C@@H](CO)O1)Nc1ccccc1 | -10 | -4
C[C@H](CO)N1C[C@H](C)[C@@H](CN(C)Cc2ccc3c(c2)OCO3)Oc2ccc(NC(=O)C3CC3)cc2C1=O | 16 | 14
C[C@@H]1CN([C@@H](C)CO)C(=O)Cc2cc(NC(=O)CCC(F)(F)F)ccc2O[C@H]1CN(C)C(=O)NC1CCCCC1 | -2 | -2
COc1ccccc1CN1[C@@H]2c3ccc(C4=CCCC4)c(=O)n3C[C@H]1[C@H](CO)[C@H]2C(=O)N(C)C | 8 | 14
C[C@@H]1CN([C@H](C)CO)S(=O)(=O)c2ccc(C3=CCCC3)cc2O[C@H]1CN(C)C(=O)c1ccc(F)cc1 | 15 | 11
Cc1noc(C)c1S(=O)(=O)N(C)C[C@@H]1Oc2c(NC(=O)C3CCCCC3)cccc2C(=O)N([C@@H](C)CO)C[C@@H]1C | 4 | -1
COc1ccc(-c2cn(CC[C@@H]3CC[C@@H](NC(=O)CCN4CCCCC4)[C@@H](CO)O3)nn2)cc1 | 6 | 11
COc1ccc(S(=O)(=O)N(C)C[C@@H]2Oc3c(NC(=O)C4CCOCC4)cccc3C(=O)N([C@@H](C)CO)C[C@@H]2C)cc1 | 2 | -2
CO[C@H](CN(C)S(=O)(=O)c1ccccc1)[C@@H](C)CN(Cc1ccccc1Cl)[C@@H](C)CO | 0 | 5
O=C(c1cccc(F)c1)N1CC(=O)N2[C@H](CO)[C@@H](c3ccc(-c4cccnc4)cc3)[C@@H]2C1 | 4 | 1
Cc1cccc(S(=O)(=O)N2CCCCN3[C@H](C2)[C@@H](c2ccc(-c4cccnc4)cc2)[C@@H]3CO)c1 | -31 | -30
COc1ccccc1-c1ccc2c(c1)O[C@H](CN(C)C(=O)Nc1ccccc1)[C@H](C)CN([C@H](C)CO)S2(=O)=O | -16 | -15
CO[C@H]1CN(C)C(=O)c2ccc(NC(=O)C3CCCC3)cc2OC[C@H](C)N(C(C)=O)C[C@H]1C | 7 | 1
CCNC(=O)C[C@H]1CC[C@H](NC(=O)C2CC2)[C@@H](CO)O1 | 16 | 18
C[C@@H]1CCCCO[C@H](CN(C)CC2CC2)[C@H](C)CN([C@@H](C)CO)C(=O)c2cc(NC(=O)c3ccncc3)ccc2O1 | -11 | -1
Cc1ccccc1-c1ccc(C2[C@H]3CNC[C@@H]2N3S(=O)(=O)c2ccccc2C)cc1 (stereo not given in full) | -12&-26 | 12&-26
Cc1ccc(S(=O)(=O)Nc2ccc3c(c2)C(=O)N([C@@H](C)CO)C[C@@H](C)[C@H](CN(C)Cc2ccccc2)O3)cc1 | 10 | 0
Cc1ccc(S(=O)(=O)N(C)C[C@H]2OCCCC[C@H](C)Oc3ccc(NS(=O)(=O)c4ccc(Cl)cc4)cc3C(=O)N([C@@H](C)CO)C[C@@H]2C)cc1 | ? | ·
C/C=C/c1ccc([C@@H]2[C@@H](CO)N3C(=O)CN(S(=O)(=O)c4ccccc4)C[C@H]23)cc1 | -2 | -1
COc1ccc2c3c(n(C)c2c1)[C@H](CO)N(Cc1ccccc1Cl)CC31CCN(C(C)=O)CC1 | -6 | 3
O=C(C[C@@H]1CC[C@H]2[C@@H](COC[C@@H](O)CN2C(=O)c2ccccc2)O1)Nc1nccs1 | 7 | 3
O=C(C[C@H]1C=C[C@@H](NC(=O)c2cccc(F)c2)[C@@H](CO)O1)Nc1nccs1 | 11 | 12
COc1ccc(S(=O)(=O)N[C@H]2C=C[C@@H](CC(=O)N3CCc4ccccc4C3)O[C@H]2CO)cc1 | -11 | 11
C[C@@H]1CN([C@H](C)CO)C(=O)c2cccc(NC(=O)NC3CCCCC3)c2O[C@H]1CN(C)Cc1ccccc1 | -20 | -16
C[C@@H]1CN([C@H](C)CO)C(=O)c2cc(NC(=O)Nc3ccc4c(c3)OCO4)ccc2O[C@@H]1CN(C)S(=O)(=O)c1ccc(Cl)cc1 | -11 | -10
CCCC#Cc1ccc([C@@H]2[C@@H](CO)N3C(=O)CN(C(=O)c4ccc(F)cc4)C[C@@H]23)cc1 | -1 | -9

Taken from above:
Under Vaccinia stage Venus, `Cc1noc(C)c1S(=O)(=O)N(C)C[C@@H]1Oc2c(NC(=O)C3CCCCC3)cccc2C(=O)N([C@@H](C)CO)C[C@@H]1C` reads -1
Under Vaccinia stage Venus, `COc1ccc(-c2cn(CC[C@@H]3CC[C@@H](NC(=O)CCN4CCCCC4)[C@@H](CO)O3)nn2)cc1` reads 11
